gsp antagonist – gsp mutant antagonism | gsp-mutant cells, cAMP HTRF, 30 min; control for the full effect not named in the record | Potency, µM (doses to about 76.9 µM), without a hit: top-dose activity change, negative = inhibition, hits mostly inhibitors | 340,000 compounds, 0.4% hits | AID 624288; active = falling curve of any shape with a large fitted effect; inconclusive = falling curve, mostly with a smaller effect; inactive = flat or rising curve; cell line not stated here;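 note: intracellular cAMP measured with PDE inhibitor Ro 20-1724 present during compound exposure; potency is the fitted concentration of half-maximal effect; % is set by controls: 0 for no effect and ±100 for the full control effect; nearly all actives have a fitted effect of over 65% in size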
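HTRF cAMP read-out (cAMP-d2 plus anti-cAMP antibody-K in lysis buffer, 30 min RT). Before lysis, cells are exposed to compounds with […] for 30 min at 37C in DPBS containing Ca/Mg, BSA and Tween 20.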
Sfp PPTase inh – inhibitors of Bacillus subtilis Sfp phosphopantetheinyl transferase; Q9F4F7; Biochemical Sfp PPTase activity, qHTS; AID 1490; 310,000 compounds, 3.5% hits; Potency, µM, inactives show max response, negative = inhibition, hits mostly inhibitors; active = well fitted inhibition curve with a large enough effect; inconclusive = small, poorly fitted or top-dose-only effect, or another doubt; inactive = no such curve, though single readings can be large or run the other way;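 note: the enzyme is Sfp with the accession as filed and its product quenches rhodamine fluorescence; potency is the fitted concentration of half-maximal effect; 0% = enzyme reaction without inhibitor and -100% = no enzyme wells; top concentration of the series not given in the record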
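With Hepes-Na pH 7.6 buffer containing 10 mM MgCl2, Sfp (15 nM) modified BHQ-2-YbbR (12.5 uM) using rhodamine-CoA (5 uM). Two reads 30 minutes apart at 525/598 nm yielded each well's rate.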
D2 agonist – agonists of human D2 dopamine receptor (beta-arrestin); activation, % (no concentration beside the values); DiscoveRx PathHunter D2 beta-arrestin, luminescence, 90 min; 100% = 57 uM dopamine signal; 360,000 compounds, 0.084% hits; AID 624465; P14416; in the data active = activation above about 40%; inconclusive = about 15% to 40%; inactive = below about 15%; note: compound concentration not given in the record; the text of the record calls up to 30% inactive
Target sequence (P14416 whole entry, looked up): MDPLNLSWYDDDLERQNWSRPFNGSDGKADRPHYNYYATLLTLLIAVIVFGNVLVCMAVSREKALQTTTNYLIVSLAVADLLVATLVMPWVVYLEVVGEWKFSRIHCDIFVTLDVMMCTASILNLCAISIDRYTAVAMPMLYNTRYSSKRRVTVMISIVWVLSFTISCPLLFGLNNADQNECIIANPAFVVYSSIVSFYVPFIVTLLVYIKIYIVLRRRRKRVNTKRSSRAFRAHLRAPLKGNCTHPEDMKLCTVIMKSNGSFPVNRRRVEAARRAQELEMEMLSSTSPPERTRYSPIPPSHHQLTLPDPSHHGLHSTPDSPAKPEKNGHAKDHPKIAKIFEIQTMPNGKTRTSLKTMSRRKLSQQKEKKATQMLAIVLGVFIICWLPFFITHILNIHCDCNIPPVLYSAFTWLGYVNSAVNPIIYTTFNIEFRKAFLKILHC
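Agonist mode: compounds alone added to overnight-plated D2 PathHunter cells for 90 min at 37 C, with 57 uM final dopamine (EC100) defining full response. Beta-arrestin recruitment detected by chemiluminescent reagent, read after 1 h at ambient temperature.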
Menin-MLL FL inh – displaces fluorescein MLL peptide from human menin. Fluorescence polarization, fluorescein-MLL peptide displacement from menin. FP activity change, % at 61.4 µM. 290,000 tested, under 10 active; inconclusive = falling polarisation curve, or a change in total fluorescence; inactive = total fluorescence flat and polarisation flat or rising; no compound was filed as active; the % refers to the polarisation; negative = inhibition;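 note: % of control where 0% means no effect; inhibitors lower the polarisation; unlabelled MLL peptide was the positive control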
PINK1 modulator – changes PINK1 expression | PINK1 immunofluorescence, high-content cytometry, 24 h | Potency, µM (titrated, usually from 76.6 µM), inactives show at the highest dose activation (PINK1 increase), hits mostly activators | 410,000 compounds, 0.2% hits; active = well fitted activation curve with a large enough effect; inconclusive = small, poorly fitted or top-dose-only effect; inactive = flat fitted curve, though single readings scatter; cell line not stated here;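 note: potency is the fitted concentration of half-maximal effect; % of control where 0% means no effect; nearly all actives have a fitted effect of over 65% in size; a mitochondrial uncoupler was the plate control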
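Readout is PINK1 immunofluorescence, quantified alongside mitochondrial, cell and nuclear markers by laser-scanning microplate cytometry. Cells from a stable line were exposed to compound titrations (5 concentrations) for 24 hours, with CCCP controls.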
gsp agonist – agonists of gsp mutant (McCune-Albright syndrome); 340,000 compounds, 0.13% hits; gsp mutant cells, cAMP HTRF, 30 min; control for the full effect not named in the record; AID 624287; Potency, µM (series often up to 76.9 µM), for inactives: at the highest dose activation (cAMP increase), hits mostly activators; active = well fitted activation curve with a large enough effect; inconclusive = small, poorly fitted or top-dose-only effect, or another doubt; inactive = no such curve, though single readings can be large or run the other way; cell line not stated here;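 note: phosphodiesterase inhibitor Ro 20-1724 added with compounds to block cAMP breakdown; potency is the fitted concentration of half-maximal effect; nearly all actives have a fitted effect of over 60% in size; about a fifth of the inactives were tested at one dose only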
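Cells stably selected in G418 were plated at 2000/well, grown 16-24 hr, then given compounds in DMSO with the PDE inhibitor […] (300 uM solution added) for 30 min at 37C; cAMP was read by HTRF.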
ClpP mod – qHTS Assay for Activators of ClpP. ATP-dependent Clp protease proteolytic subunit (Bacillus subtilis (strain 168)), P80244. purified B. subtilis ClpP, FRET peptide cleavage, 20 min. Potency, µM (series often up to 57.5 µM), for inactives: at the top dose activity change, negative = active. 340,000 compounds, 1.9% hits. AID 651965, 2013; active = well fitted falling curve with a large enough effect; inconclusive = small, poorly fitted or top-dose-only effect; inactive = no such curve, though single readings can be large or run the other way; note: potency is the fitted concentration of half-maximal effect; the source files actives as falling curves though it sought activators and does not explain the sign; nearly all actives have a fitted effect of over 65% in size; many hits overshoot -100%
Target sequence (P80244 whole entry, looked up): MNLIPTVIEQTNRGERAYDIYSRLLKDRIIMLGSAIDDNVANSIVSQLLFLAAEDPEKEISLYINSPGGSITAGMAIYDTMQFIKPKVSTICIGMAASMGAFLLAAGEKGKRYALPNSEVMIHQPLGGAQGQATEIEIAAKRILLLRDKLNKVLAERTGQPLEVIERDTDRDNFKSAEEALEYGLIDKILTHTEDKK
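ClpP 10 microg/mL final, pH 8 Tris/KCl buffer with BSA, glycerol, Tween-20; compound pinned in; FRET-FV substrate; RT 20 min; Ex320/Em430; ΔFRET vs ADEP 5.8 microM, DMSO, no enzyme.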
* hit, by the source's call; ? = inconclusive; · = not tested or not shown; [ ] = another dose, or the depositor's remark. Not a hit list (roughly 5.1% active in at least one column).

SMILES	gsp antagonist	Sfp PPTase inh	D2 agonist	Menin-MLL FL inh	PINK1 modulator	gsp agonist	ClpP mod
O=S(=O)(NC1CC1)c1ccc(S(=O)(=O)N(Cc2ccccn2)C2CCCC2)cc1	-9%	-12%	1.7	3.5	-5.5%[38.3 µM]	4%	1.0%
COc1cccc(C(=O)N2CCN(S(=O)(=O)Cc3ccccc3)CC2)c1OC	-13%	5%	0.0	-1.2	-2.1%	6%	-0.7%
O=C(Cc1cn2ccsc2n1)Nc1nc2c(s1)CN(Cc1ccccc1)CC2	0%	?	-2.1	4.3	-1.8%	12%	-0.4%
CN(C)C(CNC(C(=O)Nc1ccc([N+](=O)[O-])cc1Br)c1ccccc1)c1ccccc1 (centres undefined)	9%	-11%	-2.0	-4.1	7.9%	25%[15.4 µM]	·
CC(OC(=O)C1CCCCC1)C(=O)Nc1cccc([N+](=O)[O-])c1 (centres undefined)	4%	·	-1.6	·	-1.6%	-54%[inhibitor]	0.6%
CCOc1ccc(N(CC(=O)NC2CCCCC2)S(=O)(=O)c2c(C)noc2C)cc1	-5%	11%	-3.3	1.6	0.1%	26%	1.2%
O=C(C1CCCO1)N1CCN(Cc2c(O)ccc3ccccc23)CC1 (centres undefined)	-19%	-22%	7.6	3.3	1.5%	5%	?
CN(CC(=O)Nc1ccc(N2CCOCC2)cc1)C(=O)CSc1ccccc1F	4%	·	1.9	·	1.9%	-48%[inhibitor]	1.9%
CN(Cc1nccn1C)C(=O)c1ccc(OC2CCN(CCc3ccccc3)CC2)cc1	9%	12%	-2.3	·	1.1%	-8%	-12%
COc1cccc(-c2ccc(NC(=O)C3CCCN(Cc4nccn4C)C3)cc2)c1 (centres undefined)	-16%	-3%	1.6	·	11%	-44%[inhibitor]	2.3%
COc1ccc(-c2cc(C(=O)NN)[nH]n2)cc1OC	-1%	3%	-7.4	-2.5	5.5%	?	0.5%
CCCc1nnc(NC(=O)CNc2ccc(F)cc2)s1	2%	6%	-3.4	-0.8	-0.2%	5%	3.9%
COc1ccc(C(CNC(=O)C(CC(C)C)NS(=O)(=O)c2ccc(C)cc2)N2CCOCC2)cc1 (centres undefined)	-13%	·	-6.2	·	2.7%	-31%[inhibitor]	-0.8%
CNC(=O)C(=O)N/N=C/c1cccnc1	8%	2%	0.5	-1.5	2.1%	1%[15.4 µM]	-2.9%
O=S(=O)(Nc1ccccn1)c1ccc(C(F)(F)F)cc1Cl	-8%	9%	0.8	-2.4	-0.5%	19%[15.4 µM]	·
NC(=O)N/N=C/c1c(Sc2nnnn2-c2ccccc2)nc2ccccn2c1=O	-9%	-23%	-2.9	0.7	1.6%	-18%	-4.2%
Cn1c(O)c(/C=C2\C=Nc3ccccc32)sc1=Nc1ccc(C(=O)O)cc1	-10%	-2%	-1.1	1.5	0.8%	-1%	1.6%
Cc1cc(NC(=O)CCCC(=O)N(CC(=O)NCCc2ccccc2)Cc2ccc(F)cc2)no1	-5%	9%	-3.4	7.5	10%[38.3 µM]	-10%	2.3%
O=C(Nc1ccc(S(=O)(=O)N2CCOCC2)cc1)c1ccc(Br)o1	4%	9%	-2.0	7.1	0.5%	-10%	1.6%
Cc1ccc(-n2nc3c(=O)n(CC(=O)NCCc4ccccc4C)nc(C)c3c2C)cc1	-15%	0%	2.5	·	-0.1%	18%	-4.3%
O=C(NCCc1ccccc1)c1cnc2ccccn2c1=O	3%	19%	1.1	7.4	2.1%[38.3 µM]	49%	?
COc1ccc(Cc2n[nH]c(=S)n2N)cc1OC	-3%	20µM*	?	-2.3	0.7%	2%[15.4 µM]	0.6%
CCCN(CC(=O)Nc1ccccc1C)C(=O)C1CC(=O)N(Cc2ccccc2)C1 (centres undefined)	4%	·	0.8	·	-4.2%	-52%[inhibitor]	?
O=C(CSC1=NCCN1)Nc1cccc(C(F)(F)F)c1	5%	10%	-2.1	-7.1	2.4%	1%[15.4 µM]	?
COc1ccc(OC)c(NC(=O)c2ccc(CN3CCc4ccccc4C3)cc2)c1	-17%	3%	-3.0	-1.0	0.4%	21%	-2.6%
CN1C(C(=O)NCCc2cccs2)CC2Cn3c(nc4cc(Cl)c(Cl)cc43)C21 (centres undefined)	-11%	12%	2.9	-4.4	-0.1%	·	0.5%
Cc1ccc(C)c(N2CCN(C(=O)CCc3nc(-c4cccc(Br)c4)no3)CC2)c1	-3%	·	4.8	·	-0.2%	·	0.3%
COc1ccc(CCn2cnc(=O)c(C#N)c2C)cc1OC	8%	-3%	-1.2	3.3	-0.4%	-1%[15.4 µM]	·
CCCOc1ccccc1NC(=O)CC1Nc2ccccc2NC1=O (centres undefined)	2%	-3%	0.4	7.5	?	2%	-7.2%
COc1ccc(/C=N/NC(=O)c2cccc(COCC(F)(F)C(F)F)c2)cc1	-20%	11%	-1.4	0.0	?	-55%[inhibitor]	5.4%
Cc1c(NC(=O)COC(=O)c2cccn2C)c(=O)n(-c2ccccc2)n1C	9%	·	0.0	·	-1.5%	-1%	·
O=C(NCC(=O)N(Cc1cccs1)C(C(=O)NC1CCCC1)c1cccnc1)c1ccco1 (centres undefined)	-9%	-2%	-4.4	1.9	-1.0%	0%	2.5%
CCOC(=S)SCC(=O)N1CCc2ccccc2C1C1C(=O)CC(C)(C)CC1=O (centres undefined)	-22%	-14%	-2.7	0.4	1.9%	-62%[inhibitor]	0.4%
CN1CCCC2(CCN(C(=O)c3cnccn3)CC2)C1	·	3%	·	-1.3	-0.8%	·	·
CCCCc1nn(-c2cc(Cl)ccc2OC)c2c1C(=O)CC(C)(C)C2	-25%	5%	1.8	0.4	13%	-72%[inhibitor]	-1.6%
Cc1ccc(OCC(=O)Nc2ccncc2)cc1	-2%	4%	2.2	-1.4	-1.4%	4%[15.4 µM]	-2.9%
CC(=O)c1ccc(OCC(=O)N(C)CC(=O)Nc2ccc(N3CCOCC3)cc2)cc1	3%	·	-1.6	·	-0.1%	14%	0.1%
CN(C)c1ccc(S(=O)(=O)N2CCCCC2)cc1NC(=O)CN1C(=O)NC2(CCCC2)C1=O	-1%	·	-2.0	·	-1.8%	-21%[15.4 µM]	·
CCC(=O)Nc1nnc(SCCN2CCOCC2)s1	6%	4%	-3.8	-1.6	-0.3%	-23%	-0.8%
CC1CCCCC1NC(=O)C1CC=CCC1C(=O)O (centres undefined)	16%	9%	-4.8	5.5	3.2%	?	1.2%
Cc1ccccc1COc1ccc(/C=N/NC(=O)c2nnn(-c3nonc3N)c2CN2CCC(C)CC2)cc1	?	9%	9.4	1.1	2.3%	-1%	-8.2%
COc1cc(C)c(-c2[nH]ncc2-c2csc(C)n2)c(O)c1	-8%	0%	-2.6	6.6	1.7%	?	-1.1%
CCC(=O)N1CCCc2cc(S(=O)(=O)N3CCCc4ccccc43)ccc21	-32%	-10%	-4.0	0.6	-2.0%	18%	-2.7%
CCCCN(C)C(=O)c1nc2ccccn2c1CN1CCN(c2ccccn2)CC1	-13%	4%	0.9	-0.6	-0.6%	-8%[15.4 µM]	·
O=C(NC1CCCCC1)c1cccc(Cn2cc(Cl)cn2)c1	-7%	-6%	-3.6	-0.4	0.6%	4%	-0.9%
CC(=O)Nc1ccc(Oc2ccc3c(c2)C(=O)NC3=O)cc1	2%	7%	-0.9	-2.7	-2.0%	6%[15.4 µM]	49%
CCOC(=O)Cc1csc(NC(=O)C2C3C=CC(C3)C2C(=O)O)n1 (centres undefined)	10%	-5%	-4.2	-1.3	1.4%	10%	-3.4%
COc1ccc(N/C=C/C(=O)c2ccc(Oc3ncccn3)cc2)cc1	-3%	12%	-1.9	1.6	11%	?	3.2%
O=S(=O)(c1ccsc1)N1CC=C(c2ccccc2)CC1	-14%	3%	10	·	-0.9%	-12%	-8.7%
COC(=O)CC(c1ccccc1F)N1Cc2ccccc2C1=O (centres undefined)	8%	4%	-2.6	-7.5	2.6%	-1%	·
CCN(C(=O)CSc1n[nH]c(-c2cccs2)n1)C1CCS(=O)(=O)C1 (centres undefined)	-1%	2%	-0.2	-5.3	-1.1%	-21%	-6.5%
CCn1c(C)nc2cc(C(=O)NNC(=S)Nc3ccc(C)cc3)ccc21	-14%	14%	-8.2	-0.2	0.4%	2%[15.4 µM]	·
CCOc1ccc(-c2nc(CSCC(=O)NCc3ccco3)c(C)o2)cc1	-3%	-18%	-1.6	8.3	-1.0%	-19%	?
CCC(C)NC(=O)CSc1nc2ccccc2c(=O)n1Cc1ccc(OC)cc1 (centres undefined)	-15%	2%	-1.8	3.2	-0.3%[38.3 µM]	9%	-1.2%
Cc1ccc(C2CC(C(F)(F)F)n3nc(C(=O)NCCN4CCOCC4)cc3N2)cc1 (centres undefined)	19%	9%	-3.3	-0.9	-1.6%	-2%	0.2%
COc1ccc2[nH]cc(CCNC(=O)/C=C/[C@H]3O[C@@H](n4cnc5c(NC(=O)c6ccccc6)ncnc54)[C@H](O)[C@@H]3O)c2c1	·	·	-3.8	·	4.6%	·	-0.9%
C/C(=N\NC(=O)c1cccc(C)c1)c1cccc(NC(=O)c2ccco2)c1	-4%	5%	-5.5	0.9	-1.3%	-23%	-2.7%
O=C(c1ccc(F)cc1)N1C2CCC1CC(O)(c1ccc(F)cc1)C2 (centres undefined)	4%	-9%	-1.7	2.3	5.3%	-29%	-1.3%
COc1ccccc1C(=O)NCCC(=O)NNC(=O)c1ccccc1O	8%	·	-0.7	·	1.3%	-8%	25µM*
Cc1ccc(NC(=O)c2ccc(OC(=O)COc3ccc(Cl)cc3C)cc2)cc1	12%	14%	-2.4	-1.0	1.5%	-13%	-4.8%
CCOCCCNC(=O)CCCOc1ccccc1	16%	22%	1.0	3.5	-3.3%	-8%	2.5%

Assay outcomes: PubChem BioAssay, National Center for Advancing Translational Sciences (NCATS)
